# High-throughput results: PubChem BioAssay, National Center for Advancing Translational Sciences (NCATS)
# 2A StopGo = lowers the luciferase signal of an FMDV 2A StopGo reporter. 410,000 compounds, 1.2% hits. Potency, µM (top dose mostly 57.9 µM), for inactives: at the top dose signal change, negative = less light. human cells with a luciferase reporter of 2A StopGo recoding; control for the full effect not named in the record; active = well fitted falling curve with a large enough effect; inconclusive = small, poorly fitted or top-dose-only effect; inactive = no such curve, though single readings can be large or run the other way; tested in HEK293T cells; note: % is set by controls: 0 for no effect and ±100 for the full control effect; nearly all actives have a fitted effect of over 45% in size; luciferase light after 4 h
# RE007 growth inh = less growth of the S. pombe RE007 Vpr strain. S. pombe RE007 Vpr strain, BacTiter-Glo ATP luminescence, 24 h; control for the full effect not named in the record. Potency, µM (top dose mostly 92.2 µM), for the others: top-dose activity change, negative = less growth. 360,000 compounds, 0.21% hits; active = well fitted falling curve with a large enough effect; inconclusive = small, poorly fitted or top-dose-only effect; inactive = no such curve, though single readings can be large or run the other way;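 note: % is set by controls: 0 for no effect and ±100 for the full control effect; nearly all actives have a fitted effect of over 50% in size; the assay follows cell death caused by Vpr and the record does not say whether a fall means rescue or toxicity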
#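 Fission yeast strain RE007, carrying one chromosomally integrated HIV-1 vpr copy, was seeded at OD 0.01 in PMG+AL medium with 23 nL pinned compound. After 24 h at 30 °C and 99% humidity, viability was read by BacTiter-Glo luminescence.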
# Cruzain noTriton = blocks cruzain activity in detergent-free assay | purified cruzain, Z-FR-AMC fluorescence, no detergent | P25779 | AID 1476 | Potency, µM, for the others: max response, negative = inhibition, most hits filed as inhibitors | 200,000 compounds, 2.3% hits; active = well fitted curve in the direction sought with a large enough effect; inconclusive = small, poorly fitted or top-dose-only effect, or another doubt; inactive = no such curve, though single readings can be large; an effect the other way counts as inactive or inconclusive;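 note: plate controls were enzyme without inhibitor for no effect and buffer without enzyme for full effect; nearly all actives have a fitted effect of over 40% in size; top concentration of the series not given in the record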
# Target sequence (P25779 123-467 limits assumed): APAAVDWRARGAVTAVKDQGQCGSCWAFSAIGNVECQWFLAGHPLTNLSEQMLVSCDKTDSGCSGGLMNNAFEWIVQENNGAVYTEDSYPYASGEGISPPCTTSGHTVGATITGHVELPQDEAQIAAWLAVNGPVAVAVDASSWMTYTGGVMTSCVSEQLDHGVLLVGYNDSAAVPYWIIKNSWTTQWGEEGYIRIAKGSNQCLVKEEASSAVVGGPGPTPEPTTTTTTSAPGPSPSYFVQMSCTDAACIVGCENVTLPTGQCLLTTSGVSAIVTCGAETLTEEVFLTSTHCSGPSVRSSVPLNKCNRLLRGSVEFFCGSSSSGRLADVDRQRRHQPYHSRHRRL
#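 Purified cruzain at 1.5 nM, pre-incubated 15 min with compound at room temperature in 100 mM sodium acetate pH 5.5, 5 mM DTT, 0.00005% Triton X-100. Reaction started with 2 uM Z-FR-AMC; AMC fluorescence increase over 60 s gives rate.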
# Cruzain Triton = inhibitors of Trypanosoma cruzi cruzain with detergent; P25779; 200,000 compounds, 0.43% hits; Potency, µM, inactives show max response, negative = inhibition, usual class: inhibitors; purified cruzain, Z-FR-AMC fluorescence, 0.01% Triton; active = well fitted curve in the direction sought with a large enough effect; inconclusive = small, poorly fitted or top-dose-only effect, or another doubt; inactive = no such curve, though single readings can be large; an effect the other way counts as inactive or inconclusive;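 note: plate controls were neutral wells for no effect and buffer without enzyme for full effect; nearly all actives have a fitted effect of over 40% in size; top concentration of the series not given in the record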
#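 Purified cruzain (1.5 nM final) was preincubated with compounds for 15 min at room temperature in 100 mM sodium acetate pH 5.5, 5 mM DTT, 0.01% Triton X-100. Reaction started with 2 uM Z-FR-AMC; AMC fluorescence change over 60 s gave activity.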
# SARS PLP yeast = blocks SARS-CoV papain-like protease in a yeast assay; S. cerevisiae expressing SARS-CoV PLpro, growth rescue; control for the full effect not named in the record; 330,000 compounds, 0.19% hits; AID 485353; Potency, µM (doses to about 32.9 µM), inactives show at the highest dose activity, positive = growth rescue; note: 0% is about no effect; nearly all actives have a fitted effect of over 55% in size; growth read by luminescence after 48 h
# NS1 inh = blocks influenza NS1 protein function; Potency, µM (titrated, usually from 46.1 µM), without a hit: top-dose activity, positive = more growth; 270,000 compounds, 0.4% hits; S. cerevisiae slowed by influenza A NS1, growth recovery by OD600; note: actives are rising curves; nearly all actives have a fitted effect of over 50% in size
#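 Compounds were scored for reversing the slow growth caused by influenza A NS1 in S. cerevisiae, measured by optical density at 600 nm. Assay medium contained 2% galactose at pH 6.0; NS1-free yeast of the same strain were the positive control.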
# LASV entry inh = inhibitors of Lassa virus binding or cell entry; Lassa virus pseudotype entry inhibition, cell reporter; control for the full effect not named in the record; Potency, µM (doses to about 37.9 µM), for inactives: at the top dose activity change, negative = inhibition, actives largely listed as inhibitors; 300,000 compounds, 1.2% hits; AID 540256; active means well fitted inhibition curve with a large enough effect; inconclusive means small, poorly fitted or top-dose-only effect, or effect the other way; inactive means flat fitted curve, though single readings scatter; tested in HEK293 cells; note: % is set by controls: 0 for no effect and ±100 for the full control effect; nearly all actives have a fitted effect of over 50% in size; luciferase read-out
# MARV entry inh = inhibitors of Marburg virus binding or cell entry | Marburg virus pseudotyped entry inhibition, cell reporter; control for the full effect not named in the record; about a third of the inactives were read at about 46 µM | Potency, µM (top dose mostly 37.8 µM), for inactives: at the top dose activity change, negative = inhibition, hits mostly inhibitors | 300,000 compounds, 1.8% hits | AID 540276; active = well fitted inhibition curve with a large enough effect; inconclusive = small, poorly fitted or top-dose-only effect, or effect the other way; inactive = flat fitted curve, though single readings scatter; tested in HEK293 cells; about a fifth of its hits are not listed in these tables; note: % is set by controls: 0 for no effect and ±100 for the full control effect; luciferase read-out
# Active calls of the source: *; u = inconclusive; x = no result given; & = joins results of further samples; [ ] = remark or other dose. Unless noted, calls come from the whole dose curve; as a rule, active means well fitted rising curve with a large enough effect; inconclusive means small, poorly fitted or top-dose-only effect; inactive means no such curve, though single readings can be large or run the other way. Potency is the fitted concentration of half-maximal effect.
SMILES,2A StopGo,RE007 growth inh,Cruzain noTriton,Cruzain Triton,SARS PLP yeast,NS1 inh,LASV entry inh,MARV entry inh
Cc1ccc(C(=O)Nc2ccc3ncccc3c2)cc1,14µM*,-8%,x,x,0%,-6%,u,u
CC(C)CNC(=O)CN(C)S(=O)(=O)c1ccc(F)cc1,6%,10%,0%,-1.0%,14%,15%,3%,u
Cc1ccc(OCC(=O)Nc2ccccc2C(=O)NC2CC2)cc1,-5%,16%,x,x,-1%,x,-2%,18%
CC(C)NC(=O)c1c2c(nc3ccccc13)CCCC2,-6%,27%,-4%,0.0%,26%,-3%,-10%,7%
CC(CN1CCOCC1)OC(=O)c1ccc2c(c1)OCCO2 (configuration not stated),35%[activator],1%,1%,0.5%,-14%,-35%,4%,2%
Cc1ccccc1OCC(=O)NC(=S)Nc1ccc(N2CCCC2)cc1,u,-4%,x,x,-2%,x,18%[46.1 µM],-21%[46.1 µM]
O=C(CN1C(=O)S/C(=C\c2ccccc2F)C1=O)NC1C=CS(=O)(=O)C1 (configuration not stated),0%,-10%,x,x,-1%,-4%,x,x
COc1ccc(C(O)(c2ccccc2)C(C(=O)O)c2ccccc2)cc1 (configuration not stated),0%,-5%,x,x,x,x,1%[46.1 µM],16%[46.1 µM]
Cn1c(Nc2ccc(F)cc2)nc2ccccc21,-4%,-15%,x,x,-9%,1%,3%[46.1 µM],14%[46.1 µM]
COc1ccc(N2CCN(S(=O)(=O)c3cc(-c4cc(C)no4)ccc3C(C)C)CC2)cc1,-2%,-5%,x,x,5%,11%,x,x
COc1ccc(C(=O)C2CCCN(C(=O)c3ccc4cc[nH]c4c3)C2)c(C)c1 (configuration not stated),2%,2%,x,x,-1%,2%,x,x
CCOC(=O)c1sc(NC(=O)c2ccncc2)c(C#N)c1C,u,-12%,-9%,-12%,-46%,-54%,17%,u
Cc1csc(NC(=O)c2ccc(Br)s2)n1,17%,-15%,x,x,u,-29%,u,u
CCOC(=O)c1cc(OC(=O)c2ccc(Cl)cc2)n(-c2ccccc2)n1,-14%,x,10%,-4.4%,x,x,-4%[46.1 µM],22%[46.1 µM]
COc1cccc(CNC(=O)[C@H](CCSC)NC(=O)N2CCn3c2nc2ccccc23)c1,-4%,1%,x,x,7%,-17%,x,x
O=C(COC(=O)c1ccccc1C(=O)N1CCN(c2ccccc2)CC1)NCc1ccccc1,u,3%,x,x,0%,-5%,u,-19%
O=C(CN1CCN(Cc2ccccc2Cl)C1=O)NC1CCCCCC1,38%[activator],2%,-3%,-1.5%,-8%,-1%,-3%,0%
CC(C)(C)n1nnnc1C(c1cccnc1)N1CCN(c2cccc(C(F)(F)F)c2)CC1 (configuration not stated),u,0%,u,-8.4%,-21%,1%,u,u
COc1ccc(N(C(=O)Cn2nnc3ccccc32)C2(C(=O)NC3CCCC3)CCCCC2)cc1,x,2%,0%,-1.4%,-3%,8%,-8%,u
O=C1CN(C(=O)/C=C/c2ccccc2F)c2ccccc2N1,43%[activator],21%,x,x,2%,-6%,x,x
Cc1cc2ncc(S(=O)(=O)C(C)(C)C)c(N)n2n1,-24%,7%,x,x,1%,x,u,-1%[46.1 µM]
C[n+]1cc[nH]c1SCC(=O)c1ccccc1,35%[activator],4%,-13%,-5.9%,6%,-4%,u,u
Cc1c(CC(=O)NCCCCCC(=O)O)c(=O)oc2c(C)c3oc4c(c3cc12)CCCC4,11%,12%,x,x,-2%,-1%,x,x
CCNC(=S)Nc1cccc([N+](=O)[O-])c1,x,x,-1%,-4.5%,16%,-10%,7%,-10%
Cc1cc(C(=O)NCCN2C(=O)S/C(=C\c3cccs3)C2=O)ccc1[N+](=O)[O-],9%,19%,u,-5.5%,-13%,2%,-8%,28%
CC(C)(C)OC(=O)N1CCC(c2c(C(=O)N3CCCCC3)cnn2-c2ccccc2Cl)CC1,-20%,x,u,-3.6%,x,x,u,x
Cc1cc(F)ccc1NC(=O)C1CCCN(C(=O)c2cnn(-c3ccccc3)c2-n2cccc2)C1 (configuration not stated),-27%,x,u,-4.4%,x,x,-23%[46.1 µM],5%[46.1 µM]
CCN(CC)CCCNc1cc(C)nc2cc(-c3cccs3)nn12,-7%,-20%,x,x,-1%,-1%,-18%[46.1 µM],18µM*
COc1ccc(Nc2nc(N)nc(CSC(=S)N3CCC(C)CC3)n2)cc1,-1%,-3%,11%,-7.9%,u,25%,14%,u
Cc1ccc(C(=O)COC(=O)c2cccs2)cc1,22µM*,-25%,-5%,-4.0%,-5%,-3%,-17%,u
COCCn1c(C)cc(O)c(C(c2cccc(F)c2)N2CCN(c3ccccc3)CC2)c1=O (configuration not stated),-15%,x,-3%,0.7%,x,x,22%[46.1 µM],x
O=C(Nc1cccc(O)c1)c1ccc(C(F)(F)F)cc1,15%,3%,x,x,-1%,-3%,u,u
Cc1ccc(C(=O)OCC(=O)N2C(C)CCCC2C)cc1S(=O)(=O)N1CCCCC1 (configuration not stated),u,2%,x,x,x,x,u,-10%[46.1 µM]
CC1=C(C(N)=O)C(c2ccc(C)cc2)n2nc(SCc3ccccc3F)nc2N1 (configuration not stated),-16%,x,3%,-2.0%,x,x,3%[46.1 µM],18%[46.1 µM]
C[C@H]1C2Cc3ccc(O)cc3[C@]1(C)CCN2CC1CC1,x,x,4%,5.5%,x,-3%,-4%,u
Cc1cc(C)n(C(=O)CNC(=O)CCc2ccccc2)n1,9%,6%,-3%,-8.5%,-12%,-12%,3%,15%&15%
Cc1nc2ccccc2cc1O,10%,21%,8%,u,x,6%,6%,13%&13%
COC(=O)[C@H](CC(C)C)NC(=O)Nc1ccc(S(N)(=O)=O)cc1,-19%,8%,x,x,-1%,8%,x,x
CC(=O)OCC(=O)[C@H]1CC[C@H]2[C@@H]3CC=C4C[C@@H](O)CC[C@]4(C)[C@H]3CC[C@]12C,-16%,-10%[18.4 µM],u,3.4%,-17%,-3%,-11%,-30%
O=C1CCC(C(=O)Nc2ccc([N+](=O)[O-])cc2)N1 (configuration not stated),-15%,13%,x,x,12%,x,-2%,u
CCOC(=O)c1ccc(NC(=O)CN2C(=O)CSC2=O)cc1,26%,-1%,2%,0.2%,4%,3%,-8%,24%
CC1CCN(C(=O)c2ccc(S(=O)(=O)NCc3ccco3)cc2)CC1,19%,-4%,x,x,-2%,11%,x,-3%[46.1 µM]
COc1ccc(OC)c(-n2c(O)c(C=Nc3c(C)n(C)n(-c4ccccc4)c3=O)c(=O)[nH]c2=O)c1,-5%,9%,-18%,-8.9%,1%,6%,-13%,-26%
COc1cc(/C=C/C(=O)O)ccc1OCc1ccc([N+](=O)[O-])cc1,-5%,-5%,x,x,-1%,x,9%[46.1 µM],5%[46.1 µM]
COc1ccc(N2CCN(C(=O)COc3ccc4ccccc4c3)CC2)cc1,-18%,-9%,6%,-2.0%,4%,7%,-1%,15%
CCOc1ccc(OCC(=O)NCCS(=O)(=O)N2CCN(c3cccc(Cl)c3)CC2)cc1,-13%,x,-2%,-1.2%,x,x,-5%[46.1 µM],x
CCN(CC(=O)Nc1ccc(NC(C)=O)cc1)C(=O)c1ccccc1SCc1c(C)noc1C,31%[activator],-10%,x,x,1%,x,-13%[46.1 µM],-1%
CC1=C(C(=O)Nc2ccc(C)cc2C)C(c2ccc(O)cc2)n2nc(SCC(=O)c3ccc(C)cc3)nc2N1 (configuration not stated),-18%,x,12%,1.2%,x,x,25%[46.1 µM],x
Cc1cc(NC(=O)CSc2ncccn2)no1,x,-7%,-4%,-0.2%,-13%,2%,-18%,17%
CCOC(=O)C1CCN(C(=O)COc2ccc(Cl)cc2C)CC1,u,-13%,13%,-3.8%,16%,4%,-4%,-4%[46.1 µM]

# A different layout for two compounds above:
structure	2A StopGo	RE007 growth inh	Cruzain noTriton	Cruzain Triton	SARS PLP yeast	NS1 inh	LASV entry inh	MARV entry inh
CC1CCN(C(=O)c2ccc(S(=O)(=O)NCc3ccco3)cc2)CC1	19%	-4%	x	x	-2%	11%	x	-3%[46.1 µM]
COc1ccc(OC)c(-n2c(O)c(C=Nc3c(C)n(C)n(-c4ccccc4)c3=O)c(=O)[nH]c2=O)c1	-5%	9%	-18%	-8.9%	1%	6%	-13%	-26%

# The results go on:
SMILES,2A StopGo,RE007 growth inh,Cruzain noTriton,Cruzain Triton,SARS PLP yeast,NS1 inh,LASV entry inh,MARV entry inh
Cc1ccnc2nc(C(=O)NC3CCCc4ccccc43)nn12 (configuration not stated),0%,-8%,x,x,-6%,x,-16%,-6%
CC1CCN(CCCn2c(=S)[nH]c3ccccc3c2=O)CC1,-8%,-21%,-1%,-4.3%,14%,7%,5%,-12%
O=S(=O)(c1ccccc1)c1ncc(C(F)(F)F)cc1O,-6%,-25%,x,x,-2%,x,-29%[46.1 µM],8%[46.1 µM]
O=C(NCCC(=O)N1CCN(C(=O)c2ccco2)CC1)c1ccccc1Cl,-12%,-12%,x,x,28%,x,u,u
CC(C)=CCN1CCN(Cc2cnc(N3CCOCC3)s2)CC1CCO (configuration not stated),-9%,1%,x,x,-1%,-2%,-11%,u
O=C(COc1ccccc1)N1CCN(CC2CC=CCC2)CC1 (configuration not stated),-16%,2%,x,x,1%,-1%,1%,-9%[46.1 µM]
Cc1ccccc1NS(=O)(=O)c1ccc2c(c1)NC(=O)CO2,21%,14%,x,x,1%,x,19%[46.1 µM],-3%[46.1 µM]
COc1ccc(CCN2CC(C(=O)NCCc3cccnc3)CCC2=O)cc1 (configuration not stated),-5%,2%,x,x,-1%,-4%,-10%,9%
CCc1nnc2n1N=C(c1ccc(Cl)cc1)CS2,u,12%,x,x,-1%,0%,x,x
CC(Oc1ccccc1)C(=O)Nc1ccc(F)c(S(=O)(=O)N2CCOCC2)c1 (configuration not stated),14%,12%,x,x,3%,x,4%,-2%
CCSc1nc2c(c(-c3ccc(C)o3)c1C#N)CCCC2,0%,-9%,-27%,-15%,-13%,-8%,9%,24%
CCOc1ccccc1CNC(=O)C1CCCN(c2nc3ccccc3o2)C1 (configuration not stated),x,x,u,-3.0%,-2%,-33%,x,0%
